Source: PubChem (National Center for Advancing Translational Sciences (NCATS))
GLA inh pH 4.5 – inhibitors of human alpha-galactosidase A at pH 4.5; P06280; purified enzyme, 4-MU-alpha-Gal fluorescence, pH 4.5; activity change, negative = inhibition, % at 105 µM; 230,000 tested, under 10 active; AID 1467; inconclusive = small, poorly fitted or top-dose-only inhibition, or a rising curve; inactive = flat fitted curve, though single readings scatter; no compound was filed as active;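 further: 0% = full activity with enzyme and -100% = basal without enzyme; dose as in the result columns while the protocol names 77 µM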
miR-21 FLuc – raises the signal of a miR-21 reporter; 340,000 tested, under 10 active; Potency, µM (top dose mostly 38.3 µM), for the others: top-dose reporter change, positive = more light; HeLa miR-21 FLuc reporter, luciferase, 48 h; active = well fitted rising curve with a large enough effect; inconclusive = small, poorly fitted or top-dose-only effect; inactive = no such curve, though single readings can be large or run the other way;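 further: % of control where 0% means no effect; miR-21 action dims this reporter so a rising signal means less miR-21 action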
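Luminescence from a firefly luciferase reporter carrying a miR-21 binding site downstream, stably expressed under a CMV promoter in HeLa cells that make miR-21 endogenously, reports miRNA modulation after 48 h compound exposure up to approximately 40uM final.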
Rango dissoc inh – prevents RanGTP from dissociating the Rango-importin beta complex; O95149+P62826; Biochemical FRET Rango-importin beta, RanGTP-induced dissociation; Potency, µM (top dose mostly 46.1 µM), without a hit: at the highest dose activity change, negative = inhibition; hit rate 0.071% among 340,000; active means falling FRET ratio curve, often poorly fitted, with flat reads before Ran was added; inconclusive means other falling curves, or compound fluorescence or quenching; inactive means flat or rising ratio curve;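 further: potency means the concentration at half of the fitted maximal effect; % of control where 0% means no effect; nearly all actives have a fitted effect of over 45% in size; -100% = wells without RanGTP and RCC1; the record marks most hits as doubtful in a second field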
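Rango/importin beta premix (0.1/0.25 uM final), PBS + 1 mM DTT + 0.02% Tween-20 + 0.1% BSA; cpd 5 min RT; FRET pre-read; + RanGTP-RCC1 (0.6 uM Ran, 2 mM GTP, 0.2 uM RCC1); 45 min RT; FRET post-read, ex 430, em 486/530 nm.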
Rango-impB inh – Rango-importin beta binding inhibition. Q14974. Rango CFP/YFP FRET sensor + importin beta, 45 min. Potency, µM (top dose mostly 92.2 µM), for the others: at the highest dose inhibition of complex formation. hit rate 0.031% among 340,000. AID 540263; active = rising FRET ratio curve, often small or poorly fitted; inconclusive = mostly compound fluorescence or quenching in the first reads; inactive = flat curves in all reads;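 further: potency means the concentration at half of the fitted maximal effect; 0% = DMSO wells and 100% = buffer wells lacking importin beta; nearly all actives have a fitted effect of over 15% in size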
Target sequence (Q14974 whole entry, looked up): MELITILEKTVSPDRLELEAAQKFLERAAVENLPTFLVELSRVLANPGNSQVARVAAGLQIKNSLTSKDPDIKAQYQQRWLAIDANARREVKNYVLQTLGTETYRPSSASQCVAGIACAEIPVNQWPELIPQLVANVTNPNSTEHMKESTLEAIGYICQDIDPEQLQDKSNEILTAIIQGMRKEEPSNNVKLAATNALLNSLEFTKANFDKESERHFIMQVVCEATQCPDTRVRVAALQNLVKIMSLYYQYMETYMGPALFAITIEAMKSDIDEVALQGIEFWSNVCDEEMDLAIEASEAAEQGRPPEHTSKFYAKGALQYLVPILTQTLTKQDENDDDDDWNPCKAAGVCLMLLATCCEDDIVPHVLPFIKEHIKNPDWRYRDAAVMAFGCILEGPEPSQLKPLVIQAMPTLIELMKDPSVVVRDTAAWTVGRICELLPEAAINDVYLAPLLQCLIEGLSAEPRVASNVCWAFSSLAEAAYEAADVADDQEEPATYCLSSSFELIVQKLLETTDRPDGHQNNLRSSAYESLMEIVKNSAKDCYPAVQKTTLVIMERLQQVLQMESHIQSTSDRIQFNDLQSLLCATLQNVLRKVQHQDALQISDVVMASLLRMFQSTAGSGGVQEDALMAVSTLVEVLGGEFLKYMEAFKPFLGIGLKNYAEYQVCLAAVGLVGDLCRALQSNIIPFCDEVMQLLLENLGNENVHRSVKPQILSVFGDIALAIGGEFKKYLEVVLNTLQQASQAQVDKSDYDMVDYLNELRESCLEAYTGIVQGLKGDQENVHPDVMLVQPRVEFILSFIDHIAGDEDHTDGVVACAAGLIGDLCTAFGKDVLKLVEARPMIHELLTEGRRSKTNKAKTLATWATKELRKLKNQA
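FRET biosensor Rango (snurportin 1 IBB between N-terminal EYFP and C-terminal Cerulean), 50 nM in PBS/1 mM DTT/0.02% Tween-20/0.1% BSA, preincubated 5 min RT with compound; 0.125 microM importin beta added, 45 min RT, CFP/YFP FRET ratio read.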
* = called active by the depositor; ? = inconclusive; / = not tested or not shown; & = joins results of further samples. Not all compounds are listed; count on the stated rates, not on these rows.

SMILES	GLA inh pH 4.5	miR-21 FLuc	Rango dissoc inh	Rango-impB inh
C[C@]12c3[nH]c4ccccc4c3CCN1C(=O)C(CC(=O)NCc1cccc(C(F)(F)F)c1)C[C@@H]2C(=O)N1CCCCC1 (stereo not given in full)	/	/	0%	4.4%
CC1(C)OC(C(N)=O)C(C(N)=O)O1 (stereo not given)	-5	-2%	-1%	5.8%
C/C(=N\NC(=S)NC(C)C)c1cccc([N+](=O)[O-])c1	-6	-15%	11%	4.0%
COc1ccc(Cl)cc1S(=O)(=O)NC1CC(C)(C)NC(C)(C)C1	3	-2%	0%	0.6%
CCCCOc1ccc(C(=O)N2CCN(c3ccc(N4CCOCC4)nn3)CC2)cc1	/	/	-12%	-4.0%
O=C(CN1C(=O)NC2(CCc3ccccc32)C1=O)c1ccc(F)cc1 (stereo not given)	/	/	8%	-3.4%
CCCc1[nH]n(-c2ccc([N+](=O)[O-])cc2)c(=O)c1C(C)=NCc1ccncc1	-3	7%	-4%	-0.5%
FC(F)Oc1ccc(NC(=S)NCCc2ccccn2)cc1	4	-28%	21%	0.0%
COc1ccc(-n2c(SCC(=O)Nc3cc(C(=O)O)ccc3C)nc3ccccc3c2=O)cc1Cl	3	1%	-9%	-0.2%
CC1C(c2ccccc2)=[N+]([O-])C2(CCCC2)N1O (stereo not given)	0	-1%	2%	4.7%
COC(=O)c1ccccc1NC(=O)Nc1nnc(N2CCCCC2C)s1 (stereo not given)	1	-35%	1%	-1.2%
O=C(Nc1cccnc1)Nc1ccc(Br)cc1Cl	2	-8%	14%	0.7%

Of the compounds above, 5 have sulfur.
SMILES	GLA inh pH 4.5	miR-21 FLuc	Rango dissoc inh	Rango-impB inh
C/C(=N\NC(=S)NC(C)C)c1cccc([N+](=O)[O-])c1	-6	-15%	11%	4.0%
COc1ccc(Cl)cc1S(=O)(=O)NC1CC(C)(C)NC(C)(C)C1	3	-2%	0%	0.6%
FC(F)Oc1ccc(NC(=S)NCCc2ccccn2)cc1	4	-28%	21%	0.0%
COc1ccc(-n2c(SCC(=O)Nc3cc(C(=O)O)ccc3C)nc3ccccc3c2=O)cc1Cl	3	1%	-9%	-0.2%
COC(=O)c1ccccc1NC(=O)Nc1nnc(N2CCCCC2C)s1 (stereo not given)	1	-35%	1%	-1.2%

The results go on.
SMILES	GLA inh pH 4.5	miR-21 FLuc	Rango dissoc inh	Rango-impB inh
CC1CCCCN1Cc1nc2c(c(=O)n(C)c(=O)n2C)n1CCCc1ccccc1 (stereo not given)	/	/	4%	0.3%
CSc1ccc(CN(C)CC(=O)NCc2ccc(F)cc2)cc1	3	0%	6%	-1.0%
CCOC(=O)c1cc(-c2ccccc2)n(CC(=O)N2CCCC2)c1C	8	-8%	-13%	0.3%
CC(C)(C)N(Cc1ccccc1)C(=O)COC(=O)C1CC1	/	/	-10%	-3.0%
COc1cccc(C2CCCCN2Cc2nc(-c3ccc(C)o3)oc2C)c1 (stereo not given)	-1	-32%	-2%	-1.3%
COCc1cc(C)nc2sc3c(=O)n(-c4cccc5ccccc45)nnc3c12	1	-1%	-17%	-5.0%
CCOCCCNC(=O)C1(O)c2cc(Br)ccc2NC(=O)N1c1ccc(CC)cc1 (stereo not given)	/	4%	0%	2.0%
C=C1C(=O)O[C@@H]2[C@H]1CC[C@H](C)[C@]1(O)CCC(=O)[C@@]21C	/	19%	7%	4.8%
CC(CN1CCOCC1)OC(=O)c1cccc(Cl)c1 (stereo not given)	/	0%	-12%	-0.2%
Cc1ccccc1C(=O)c1c[nH]c(C(=O)N2CCN(c3ccccc3F)CC2)c1	-10	8%	?	-5.0%
Cc1ccc(-n2cc(CCCCCCCCC(=O)O)nn2)cc1	/	-4%	-5%	6.6%
NC(=S)N/N=C1\CCSc2ccc(Cl)cc21	-13	?	20%	1.8%
CS(=O)(=O)c1cnc2c(-c3ccsc3)cnn2c1N	10	-87%	-1%	-4.7%
CC(C)Cn1nc(NC(=O)C(C)(C)C)c2cc3ccccc3nc21	-3	7%	-10%	0.1%
CCCc1cc(=O)n2[nH]c(-c3cccc(Br)c3)cc2n1	/	-51%	7%	1.7%
COc1ccc(CN(C(=O)c2snc(C(N)=O)c2N)C(C(=O)NC(C)(C)C)c2ccco2)cc1 (stereo not given)	-2	-9%	-7%	-3.1%
CCCc1cc(=O)[nH]c(SCC(=O)Nc2ccc(Br)cc2Br)n1	4	1%	-9%	0.3%
CC(C)(C)C(=O)NC(Nc1cccc2cccnc12)C(Cl)(Cl)Cl (stereo not given)	3	7%	-21%	-2.1%
C=CCn1c(-c2cccn(Cc3cccc(Cl)c3)c2=O)n[nH]c1=S	7	-12%	11%	1.4%
COc1ccccc1C(=O)NCCNC(=O)c1ccc(C)nc1	/	0%	-9%	-0.1%
O=C(CSc1nc2ccccc2c(=O)n1-c1ccccc1)c1cccc([N+](=O)[O-])c1	/	/	?	4.8%
O=C(Nc1ccc2c(c1)CN(Cc1ccc(CO)o1)CC2)c1ccc(C(F)(F)F)cc1	/	-1%	1%	-3.4%
CCOC(=O)c1nc(Nc2ccccc2CC)c2ccccc2n1	/	0%	0%	-1.5%
CN(C)S(=O)(=O)c1cccc(NC(=O)C2Cc3ccccc3CN2C(=O)c2ccccc2)c1 (stereo not given)	/	-19%	20%	-3.7%

Compound profiles, from the list above. Values in the order: GLA inh pH 4.5	miR-21 FLuc	Rango dissoc inh	Rango-impB inh
CCCc1[nH]n(-c2ccc([N+](=O)[O-])cc2)c(=O)c1C(C)=NCc1ccncc1 reads -3	7%	-4%	-0.5%
C=C1C(=O)O[C@@H]2[C@H]1CC[C@H](C)[C@]1(O)CCC(=O)[C@@]21C reads /	19%	7%	4.8%
CC1C(c2ccccc2)=[N+]([O-])C2(CCCC2)N1O (stereo not given) reads 0	-1%	2%	4.7%

Next structures.
SMILES	GLA inh pH 4.5	miR-21 FLuc	Rango dissoc inh	Rango-impB inh
COC(=O)C(NC(=O)c1ccc(F)cc1)(Nc1ncc(S(=O)(=O)c2ccc([N+](=O)[O-])cc2)s1)C(F)(F)F (stereo not given)	-12	22%	-1%	-0.2%
COc1ccc(N2CCN(C(=S)Nc3cc(C)cc(C)c3)CC2)cc1	3	2%	-6%	-6.8%
CC1CCc2cc(F)cc3c(O)c(C(=O)NCC4CCCO4)c(=O)n1c23 (stereo not given)	3	3%	-16%	-0.2%
O=C(O)c1ncc(-c2ccccc2)cn1	4	-1%	-5%	2.4%
Nc1nc(-c2ccccc2)nn1C(=O)Cc1ccccc1	2	-9%	5%	-0.6%
Cn1c(SCC(=O)NC2CCCCCC2)nnc1-c1cccs1	15	-9%	3%	0.2%
O=C1CSC(c2cccc([N+](=O)[O-])c2)N1c1ccccc1 (stereo not given)	-1	-13%	11%	3.6%
CNC(=O)N(O)C1N(/N=C/c2cccnc2)C(=S)SC1(C)C (stereo not given)	3	-3%	14%	2.9%
Cc1cc(-c2ccc(C(C)C)c(S(=O)(=O)N3CCN(c4ccccc4)CC3)c2)on1	/	23%	2%	-1.4%
CC(=O)c1cc2cc(O)ccc2o1	?	-12%	?	?
O=C(CNC(=O)c1ccc(OC(F)F)cc1)NCC1(N2CCOCC2)CCCCC1	/	/	-4%	8.6%
O=C(CCC1CCCCC1)Nc1cccnc1	-3	-20%	-9%	-1.9%
CCOc1ccc(NC(=O)CCCNC(=O)Cn2cnc3sc(C)c(C)c3c2=O)cc1	/	4%	-8%	-3.9%
O=C1CC(=O)Nc2cc(S(=O)(=O)NCc3cccs3)ccc2N1	/	0%	-2%	1.0%
O=S(=O)(NC1CCCCCC1)c1cccc2cccnc12	-3	-5%	5%	1.0%
CN1CCN(C(=O)c2cccn(Cc3c(Cl)cccc3Cl)c2=O)CC1	/	-3%	7%	-2.9%
Cc1cc(C)n(CCC(=O)N/N=C/c2ccccc2O)n1	2	26%	-9%	-0.5%
Clc1ccc(-n2cc(COCc3ccccc3)nn2)cc1	7	-1%	-14%	2.0%
O=Cc1c(N2CCN(c3cccc(Cl)c3)CC2)nc2ccccn2c1=O	7	-8%	-11%	0.9%
CC(=O)CSc1nc2ccccc2o1	2	-43%	1%	-2.9%
CC(C(=O)Nc1ccc(S(=O)(=O)N2CCCCC2)cc1)N1CCN(c2ccccn2)CC1 (stereo not given)	-5	0%	/	/
CSC(=NS(=O)(=O)c1ccc(C)cc1)SC	-9	-6%	1%	-0.3%
COC(=O)c1c(NC(=O)Cn2nc(C(F)F)cc2C(F)F)sc(C)c1C	-22	0%	-14%	1.8%
Cc1cccc(C(=O)NCC(=O)NNC(=O)c2ccccc2O)c1	/	/	0%	0.2%

Ordered by the number under GLA inh pH 4.5 (descending): some entries from above
SMILES	GLA inh pH 4.5	miR-21 FLuc	Rango dissoc inh	Rango-impB inh
O=Cc1c(N2CCN(c3cccc(Cl)c3)CC2)nc2ccccn2c1=O	7	-8%	-11%	0.9%
CC(=O)CSc1nc2ccccc2o1	2	-43%	1%	-2.9%
O=S(=O)(NC1CCCCCC1)c1cccc2cccnc12	-3	-5%	5%	1.0%
CC(C(=O)Nc1ccc(S(=O)(=O)N2CCCCC2)cc1)N1CCN(c2ccccn2)CC1 (stereo not given)	-5	0%	/	/
COC(=O)c1c(NC(=O)Cn2nc(C(F)F)cc2C(F)F)sc(C)c1C	-22	0%	-14%	1.8%

(list continues)
SMILES	GLA inh pH 4.5	miR-21 FLuc	Rango dissoc inh	Rango-impB inh
Cc1cc(C(C)(C)C)cc(C)c1N	0	-2%	1%	4.9%
CCOCCCNC(=O)C(c1ccc(OC)cc1)N(Cc1cccs1)C(=O)CNC(C)=O (stereo not given)	0	4%&4%	1%	2.0%
CNC(=S)N/N=C/c1cn(CCOc2cccc(OC)c2)c2ccccc12	-14	2%	-18%	0.3%
Cc1cccc(CSCc2ccc(C(=O)NC(C)C)o2)c1	/	22%	4%	-1.9%
CC(=O)Nc1ccc(NC(=O)C2CCCN2C(=O)NCc2ccccc2)cc1 (stereo not given)	/	0%	-9%	-3.4%
COc1ccc(-n2c(CNC(=O)c3ccc(S(=O)(=O)N4CCCC4)cc3)n[nH]c2=S)cc1	-2	-8%	-2%	1.3%
CCCCC1(O)CC(C(F)(F)F)=NN1C(=O)COc1ccccc1 (stereo not given)	-7	1%	16%	5.6%
CC(C)OC(=O)/C(=C\c1ccccc1)NC(=O)c1ccccc1	8	-2%	1%	-2.0%
CSc1cccc(N2CC(C(=O)Nc3cccc(S(=O)(=O)N4CCCC4)c3)CC2=O)c1 (stereo not given)	/	/	-13%	0.4%
CC(Sc1ccc(S(=O)(=O)N2CCN(C)CC2)cn1)C(=O)NC1(C#N)CCCCC1 (stereo not given)	/	/	13%	?
CC(=O)N1CCN(S(=O)(=O)c2ccc(C)cc2)C1C (stereo not given)	/	/	-2%	-1.4%
Cc1ccc(-c2nn(-c3ccccc3)cc2C(=O)Nc2ccc(C)c(S(=O)(=O)N3CCOCC3)c2)cc1	3	-2%	-4%	-1.5%
Cc1cccc2c(=O)n3c(cc12)-c1[nH]c2ccccc2c1CC3	/	/	?	?
Cc1c(C(=O)NC2CCCCC2)oc2c1C(=O)CC(C)(C)C2	-7	-6%	4%	0.0%
CCc1ccc(N2CCN(C(=O)N3CCOCC3)CC2)cc1	7	-10%	-8%	-0.4%
CCCN(CC(=O)Nc1ccccc1OC)C(=O)c1cc(-c2ccccc2)nn1-c1ccccc1	/	/	-8%	1.1%
COc1ccc(-c2nc3c(c(SCC(=O)Nc4cccc(O)c4)n2)Cc2c(CO)cnc(C)c2O3)cc1	/	-11%&-17%	-18%	-2.5%
CN(C)c1ccc(NC(=O)CSc2n[nH]c(-c3ccco3)n2)cc1	-2	-6%	-1%	-0.7%
CCCCN(C(=O)c1cccc(S(=O)(=O)N(CC)c2ccccc2)c1)c1c(N)n(CC(C)C)c(=O)[nH]c1=O	/	/	20%	0.4%
C/C(Cn1nnc([N+](=O)[O-])n1)=N\NC(=O)c1ccc(Cl)c(Cl)c1	0	28%	-1%	0.0%
O=C(CCCCC(=O)OC1CCCCC1)OC1CCCCC1	/	/	1%	0.6%
O=C(Cc1c(C(=O)O)[nH]c2ccccc12)NCCN1CCN(c2cccc(Cl)c2)CC1	5	1%	17%	2.4%
